Compound activity (PubChem BioAssay)
Cruzain Triton: blocks cruzain activity in presence of Triton detergent; AID 1478; 200,000 tested, 0.43% active; Potency, µM, inactives show max response, negative = inhibition, hits mostly inhibitors; purified cruzain, Z-FR-AMC fluorescence, 0.01% Triton; active = well fitted curve in the direction sought with a large enough effect; inconclusive = small, poorly fitted or top-dose-only effect, or another doubt; inactive = no such curve, though single readings can be large; an effect the other way counts as inactive or inconclusive;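 note: plate controls were neutral wells for no effect and buffer without enzyme for full effect; nearly all actives have a fitted effect of over 40% in size; top concentration of the series not given in the record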
Target sequence (P25779 123-467 limits assumed): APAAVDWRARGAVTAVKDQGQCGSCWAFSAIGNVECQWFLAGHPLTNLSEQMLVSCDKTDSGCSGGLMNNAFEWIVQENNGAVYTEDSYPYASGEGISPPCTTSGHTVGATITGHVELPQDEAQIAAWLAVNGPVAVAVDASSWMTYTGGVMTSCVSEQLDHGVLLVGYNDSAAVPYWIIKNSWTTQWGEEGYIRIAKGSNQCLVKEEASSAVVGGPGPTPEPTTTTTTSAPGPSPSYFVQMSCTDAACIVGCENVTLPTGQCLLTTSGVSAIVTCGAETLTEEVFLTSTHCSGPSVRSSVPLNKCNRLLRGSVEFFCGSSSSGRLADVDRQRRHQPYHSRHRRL
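Cruzain (1.5 nM) preincubated 15 min at RT with compound in 100 mM sodium acetate pH 5.5, 5 mM DTT, 0.01% Triton X-100. Reaction started with 2 uM Z-FR-AMC; AMC fluorescence (ex 360/em 450 nm) change over 60 s gave rate.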
RE007 growth inh: less growth of the S. pombe RE007 Vpr strain; S. pombe RE007 Vpr strain, BacTiter-Glo ATP luminescence, 24 h; control for the full effect not named in the record; Potency, µM (doses to about 92.2 µM), without a hit: at the highest dose activity change, negative = less growth; 360,000 tested, 0.21% active; active = well fitted falling curve with a large enough effect; inconclusive = small, poorly fitted or top-dose-only effect; inactive = no such curve, though single readings can be large or run the other way;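 note: % is set by controls: 0 for no effect and ±100 for the full control effect; nearly all actives have a fitted effect of over 50% in size; the assay follows cell death caused by Vpr and the record does not say whether a fall means rescue or toxicity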
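Fission yeast strain RE007, carrying one chromosomally integrated HIV-1 vpr copy, was seeded at OD 0.01 in PMG+AL medium with 23 nL pinned compound. After 24 h at 30 °C and 99% humidity, viability was read by BacTiter-Glo luminescence.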
Marburg entry inh: Marburg virus entry inhibition; Marburg virus pseudotyped entry inhibition, cell reporter; control for the full effect not named in the record; about a third of the inactives were read at about 46 µM; Potency, µM (titrated, usually from 37.8 µM), inactives show at the top dose activity change, negative = inhibition, usual class: inhibitors; 300,000 tested, 1.8% active; AID 540276; active = well fitted inhibition curve with a large enough effect; inconclusive = small, poorly fitted or top-dose-only effect, or effect the other way; inactive = flat fitted curve, though single readings scatter; tested in HEK293 cells; about a fifth of its hits are not listed in these tables; note: % is set by controls: 0 for no effect and ±100 for the full control effect; luciferase read-out
NS1 function inh: inhibitors of influenza NS1 protein function | 270,000 tested, 0.4% active | S. cerevisiae slowed by influenza A NS1, growth recovery by OD600 | AID 2326 | Potency, µM (series often up to 46.1 µM), inactives show at the top dose activity, positive = more growth; note: actives are rising curves; nearly all actives have a fitted effect of over 50% in size
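S. cerevisiae expressing influenza A NS1, grown in glucose, washed, then diluted 1:100 into pH 6.0 -URA galactose medium with 23 nl compound. Growth recovery read as OD600; NS1-free strain serves as control.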
Cruzain noTriton: cruzain (T. cruzi) inhibition without detergent | P25779 | Potency, µM, for inactives: max response, negative = inhibition, usual class: inhibitors | purified cruzain, Z-FR-AMC fluorescence, no detergent | 200,000 tested, 2.3% active; active = well fitted curve in the direction sought with a large enough effect; inconclusive = small, poorly fitted or top-dose-only effect, or another doubt; inactive = no such curve, though single readings can be large; an effect the other way counts as inactive or inconclusive;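 note: plate controls were enzyme without inhibitor for no effect and buffer without enzyme for full effect; nearly all actives have a fitted effect of over 40% in size; top concentration of the series not given in the record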
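Detergent-free condition (0.00005% Triton X-100) in acetate buffer pH 5.5 with DTT. 1.5 nM enzyme and compound were pre-mixed 15 min, then 2 uM Z-FR-AMC substrate added; reaction progress from fluorescence change between first and third reads (60 s).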
SARS PLP yeast: SARS-CoV PLP inhibition in yeast | S. cerevisiae expressing SARS-CoV PLpro, growth rescue; control for the full effect not named in the record | Potency, µM (doses to about 32.9 µM), for the others: top-dose activity, positive = growth rescue | 330,000 tested, 0.19% active | AID 485353; note: 0% is about no effect; nearly all actives have a fitted effect of over 55% in size; growth read by luminescence after 48 h
Lassa entry inh: blocks Lassa virus binding to or entry into cells; AID 540256; Lassa virus pseudotype entry inhibition, cell reporter; control for the full effect not named in the record; 300,000 tested, 1.2% active; Potency, µM (titrated, usually from 37.9 µM), without a hit: top-dose activity change, negative = inhibition, usual class: inhibitors; active means well fitted inhibition curve with a large enough effect; inconclusive means small, poorly fitted or top-dose-only effect, or effect the other way; inactive means flat fitted curve, though single readings scatter; tested in HEK293 cells; note: % is set by controls: 0 for no effect and ±100 for the full control effect; nearly all actives have a fitted effect of over 50% in size; luciferase read-out
StopGo reporter: lowers the luciferase signal of an FMDV 2A StopGo reporter. human cells with a luciferase reporter of 2A StopGo recoding; control for the full effect not named in the record. Potency, µM (titrated, usually from 57.9 µM), for the others: at the top dose signal change, negative = less light. 410,000 tested, 1.2% active; active = well fitted falling curve with a large enough effect; inconclusive = small, poorly fitted or top-dose-only effect; inactive = no such curve, though single readings can be large or run the other way; tested in HEK293T cells; note: % is set by controls: 0 for no effect and ±100 for the full control effect; nearly all actives have a fitted effect of over 45% in size; luciferase light after 4 h
* = called active by the depositor; ? = inconclusive; nt = no result given; [ ] = another dose, or the depositor's remark. Unless noted, calls come from the whole dose curve; as a rule, active means well fitted rising curve with a large enough effect; inconclusive means small, poorly fitted or top-dose-only effect; inactive means no such curve, though single readings can be large or run the other way. Potency is the fitted concentration of half-maximal effect.

The opening 2 records, to show the layout:
SMILES | Cruzain Triton | RE007 growth inh | Marburg entry inh | NS1 function inh | Cruzain noTriton | SARS PLP yeast | Lassa entry inh | StopGo reporter
CCC(CC)NCCOC(=O)c1ccc([N+](=O)[O-])cc1 | nt | -1% | nt | -1% | nt | 5% | nt | -8%
CCOC1=NN(c2ccccc2)C(=O)/C1=C\N(C)C | nt | 4% | 0%[46.1 µM] | nt | nt | -2% | -31%[46.1 µM] | 1%

The list itself, from the start:
SMILES | Cruzain Triton | RE007 growth inh | Marburg entry inh | NS1 function inh | Cruzain noTriton | SARS PLP yeast | Lassa entry inh | StopGo reporter
CCC(CC)NCCOC(=O)c1ccc([N+](=O)[O-])cc1 | nt | -1% | nt | -1% | nt | 5% | nt | -8%
CCOC1=NN(c2ccccc2)C(=O)/C1=C\N(C)C | nt | 4% | 0%[46.1 µM] | nt | nt | -2% | -31%[46.1 µM] | 1%
COc1ccc(CNC(=O)Cn2cc([N+](=O)[O-])nc2C)cc1 | -0.7% | -9% | -2% | 8% | 1% | nt | 7% | -9%
CC1CCc2sc(NC(=S)NC(=O)c3ccccc3)c(C#N)c2C1 (stereo not given) | -5.9% | -4% | ? | 8% | 25µM* | 0% | 10% | 46%[activator]
Cc1ccc(S(=O)(=O)NNc2ccccc2)c(C)c1 | -0.9% | 18% | 1% | -23% | 7% | -56% | -13% | 7%
CCOc1ccccc1C(=O)N/N=C/c1cccc2cccnc12 | -5.2% | -22% | 1% | -45% | -10% | -11% | -29% | -29%
COc1ccc(NC(=O)[C@H](C)NC(=O)C2CCN(S(=O)(=O)c3ccc(C)cc3)CC2)cc1 | nt | -2% | nt | -15% | nt | 6% | nt | -4%
Cc1noc(C)c1CSc1nnc(-c2ccncc2)n1-c1cccc(Cl)c1C | 2.1% | -14% | -23% | -7% | ? | 5% | -2% | -20%
O=C(COc1ccc([N+](=O)[O-])cc1Cl)N(C1CCCCC1)C1CCS(=O)(=O)C1 (stereo not given) | nt | -11% | ? | nt | nt | 0% | 0% | -29%
O=C(CSc1n[nH]c(-c2ccccc2)n1)Nc1ccc(Br)cn1 | -7.4% | -18% | -9% | -10% | -2% | 20% | -7% | -9%
CCCCCN1C(C(=O)c2ccccc2)=C(NC(=O)c2ccc(OC)cc2)c2ccccc2S1(=O)=O | -5.3% | nt | ? | nt | ? | nt | ? | -6%
O=C(C1=NN[C@@H]2C(=O)N(c3cccc(C(F)(F)F)c3)C(=O)[C@H]12)c1cnccn1 | nt | -3% | 11% | 4% | nt | -1% | 16% | 0%
COc1cc(OC)cc(C(=O)NC2CCN(CCCOc3ccccc3)CC2)c1 | nt | 3% | nt | 15% | nt | 2% | nt | -23%
Cc1cc(F)ccc1S(=O)(=O)N1CCCOC1CNC(=O)C(=O)NCCN1CCOCC1 (stereo not given) | nt | 10% | 0% | 6% | nt | -5% | ? | 8%
CCOc1ccc2cc(C(=O)NCc3ccccc3)c(=N)oc2c1 | nt | -3% | 15%[46.1 µM] | 2% | nt | -3% | 0%[46.1 µM] | 5%
Cc1ccc(-c2cc(-c3ccccc3)no2)c(O)c1 | 1.8% | -11% | ? | -9% | ? | 8% | 5µM* | ?
COC(=O)C1=C(N)OC2=C(C(=O)CC(C)(C)C2)C1c1cc2c(cc1Cl)OCO2 (stereo not given) | nt | 0% | -4%[46.1 µM] | -6% | nt | -7% | ? | -14%
COc1ccccc1CNC(=O)C1CCN(S(=O)(=O)c2ccc3c(c2)C(C)(C)C(=O)N3C)CC1 | nt | -3% | nt | -40% | nt | 5% | nt | -12%
Cc1cc2c([nH]c3ccccc32)c2c1OC(C)(C)C=C2 | nt | ? | nt | 2% | nt | -3% | nt | 56%[activator]
Cc1ccc(NC(=O)c2ccc(-c3ccccc3)s2)cc1 | -5.7% | nt | 9%[46.1 µM] | nt | 13µM* | nt | 2%[46.1 µM] | 87%[activator]
CCOC(=O)c1ccc(CC2SC(N)=NC2=O)cc1 (stereo not given) | nt | -7% | 6%[46.1 µM] | 4% | nt | 3% | ? | 0%
COc1ccccc1C(=O)N/C(=C\c1cn(S(=O)(=O)N(C)C)c2ccccc12)C(=O)N1CCOCC1 | nt | 9% | nt | 11% | nt | -5% | nt | -19%
COc1cccc(C2CC(=O)Nc3c2c(=O)n(C)c2nc4ccccc4n32)c1OC (stereo not given) | -0.6% | nt | -3%[46.1 µM] | nt | -1% | nt | 0%[46.1 µM] | -5%
O=C(O)c1ccccc1NS(=O)(=O)c1cccc(-n2sc3ccccc3c2=O)c1 | nt | 1% | 12%[46.1 µM] | 16% | nt | -1% | -5%[46.1 µM] | ?
CN(c1ccccc1)S(=O)(=O)c1ccc(NC(=O)C2CC2)cc1 | nt | 2% | nt | -2% | nt | -8% | nt | 10%

3 entries picked at random from those above:
SMILES | Cruzain Triton | RE007 growth inh | Marburg entry inh | NS1 function inh | Cruzain noTriton | SARS PLP yeast | Lassa entry inh | StopGo reporter
COc1ccc(CNC(=O)Cn2cc([N+](=O)[O-])nc2C)cc1 | -0.7% | -9% | -2% | 8% | 1% | nt | 7% | -9%
CCOC(=O)c1ccc(CC2SC(N)=NC2=O)cc1 (stereo not given) | nt | -7% | 6%[46.1 µM] | 4% | nt | 3% | ? | 0%
CCC(CC)NCCOC(=O)c1ccc([N+](=O)[O-])cc1 | nt | -1% | nt | -1% | nt | 5% | nt | -8%

Remaining list, next part.
SMILES | Cruzain Triton | RE007 growth inh | Marburg entry inh | NS1 function inh | Cruzain noTriton | SARS PLP yeast | Lassa entry inh | StopGo reporter
CO/N=C(\Cn1ncc(N2CCOCC2)c(Br)c1=O)c1ccc(Cl)cc1 | nt | 14% | nt | -4% | nt | -2% | nt | -16%
O=C(CCC(=O)N1C[C@H]2C[C@@H](C1)c1cccc(=O)n1C2)NCc1ccccc1C(F)(F)F | nt | 6% | 2% | nt | nt | 1% | nt | ?
Cn1c2c(c(=O)n(C)c1=O)C(C(F)(F)F)(C(F)(F)F)N=C(c1ccc(Cl)cc1)N2 | -2.2% | -12% | 1µM* | -143% | -3% | -26% | 2.8µM* | 2.2µM*
Cc1cc2c(c(=O)n1CC1CCCO1)C(c1ccco1)C(C#N)=C(N)O2 (stereo not given) | 4.1% | 7% | -14% | -5% | -6% | 11% | 4% | -5%
CC(=O)/C=C\c1cn(-c2ncc(C(F)(F)F)cc2Cl)c2ccccc12 | -11% | -11% | ? | -8% | 6% | -7% | ? | 32µM*
CCOc1ccc(C(CC(=O)O)NC(=O)C23CC4CC(CC(C4)C2)C3)cc1 (stereo not given) | 0.2% | -7% | 14% | 6% | 8% | 9% | 13% | -5%
COc1ccc(NC(=O)CCc2nnc3n(Cc4ccccc4Cl)c(=O)c4ccccc4n23)cc1 | -0.2% | nt | -3%[46.1 µM] | nt | 3% | nt | nt | 5%
N#C/C(C(=O)c1ccccc1)=C1/CCCCCN1 | -7.4% | 28µM* | -6%[46.1 µM] | -14% | -6% | 5% | -12% | 40%[activator]
CCn1cc(CN2CCC(n3nccc3NC(=O)CCc3ccccc3)CC2)cn1 | nt | 2% | ? | ? | nt | 3% | -27% | -8%
COc1ccc(N(CC(=O)NCCSc2ccccc2)S(C)(=O)=O)cc1 | nt | -7% | -19%[46.1 µM] | -3% | nt | 0% | ? | -5%
O=C(CCC(=O)N/N=C/c1ccc(Br)o1)N/N=C/c1ccc(Br)o1 | nt | 5% | 25%[46.1 µM] | -2% | nt | -1% | 3% | -12%
Cn1cc(CCC(=O)NCCCc2ccccc2)c2ccccc21 | nt | 8% | 12%[46.1 µM] | -12% | nt | -1% | -17%[46.1 µM] | -11%
COc1ccccc1N1CCN(C(=O)Nc2ccc(F)c(Cl)c2)CC1 | nt | 7% | 10%[46.1 µM] | -7% | nt | -3% | -22% | -5%
Cc1cnc(C(=O)OC(C(=O)c2c[nH]c3ccccc23)c2ccccc2)cn1 (stereo not given) | nt | -4% | 0% | nt | nt | -10% | -21% | 14%
CCOC(=O)c1ccc(NC=C2C(=O)OC3(CCCCC3)OC2=O)cc1 | 0.1% | 0% | 9% | 4% | -2% | 4% | 11% | -3%
CC(C)NC(=O)C(C)Oc1ccc(S(=O)(=O)NCc2ccc3c(c2)OCO3)cc1 (stereo not given) | nt | -6% | -2%[46.1 µM] | 13% | nt | 7% | 7%[46.1 µM] | 0%
C[N+]1(C2CCC3CCCC2C3O)CCCCC1 (stereo not given) | nt | -5% | ? | -4% | nt | -4% | 13%[46.1 µM] | -8%
CCOC(=O)Cc1nnn(CC(=O)OCC)n1 | 3.5% | 9% | 0% | 8% | ? | -8% | -12% | 0%
CCOc1ccc(/C=C2\SC(=S)N(N3C(=O)C4CC4C3=O)C2=O)cc1 (stereo not given) | nt | 2% | 16%[46.1 µM] | 0% | nt | 2% | -15% | 2%
COc1ccc(OC)c(NC(=O)c2c(NCc3sccc3C)sc3c2CCCCC3)c1 | -8.7% | nt | nt | nt | 1% | nt | 20%[46.1 µM] | 30%
Cc1nc2scc(C)n2c(=O)c1S(=O)(=O)NC(C)c1ccccc1 (stereo not given) | nt | 2% | nt | 6% | nt | ? | nt | 14%
O=C(N/N=C/c1cc2c(cc1Cl)OCO2)c1cccc(Br)c1 | nt | 7% | nt | 4% | nt | -4% | nt | 10%
CCOc1ccccc1/C=N/NC(=O)CNC(=O)c1ccc(S(=O)(=O)N2CCOCC2)cc1 | -1.0% | 6% | 4% | -17% | 19% | 9% | 7% | -5%
C/C=C/C=C/C(=O)O | 7.0% | -3% | nt | nt | 6% | -16% | nt | -19%
CCCOc1ccc(OCCOCCN2CCc3ccccc3C2)cc1 | 1.3% | -6% | -37% | -9% | 9% | 1% | 0% | -14%
C=CCNc1nc(N)c([N+](=O)[O-])c(NCc2ccccc2)n1 | nt | -6% | 1%[46.1 µM] | -34% | nt | -1% | -8% | -16%
COc1cc(/C=C2\SC(=N)N(c3ccc(F)cc3)C2=O)ccc1O | nt | -7% | ? | nt | nt | -3% | ? | 1%
CCCCOCCCNC(=O)C1CCCCC1 | 0.9% | 6% | 8% | -1% | -6% | -2% | 3% | nt

Outcome played no part in choosing rows, and some 4.8% of all compounds hit somewhere here.
